Assay outcomes deposited in PubChem BioAssay by National Center for Advancing Translational Sciences (NCATS).
CtBP-E1A blk: blocks the CtBP interaction with E1A. AlphaScreen GST-E1A/His-CtBP binding, 1536-well; hits give low values; control for the full effect not named in the record. 340,000 compounds, 0.49% hits. activity change, % (test concentration not listed); in the data active means activity change below about -65%; inconclusive means about -30% to -65%; inactive means above about -30%; further: on the % scale 0 is the no-effect control and ±100 the full control effect
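In 5 uL wells, 23 nL compound meets equimolar GST-E1A and His-CtBP (5X stock 125 nM each) for 2 h, 37 °C. Beads (5X, 50 ug/mL) then 1 h, 37 °C, dark.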
D2 agonist: human D2 receptor agonism in beta-arrestin assay; P14416; DiscoveRx PathHunter D2 beta-arrestin, luminescence, 90 min; 100% = 57 uM dopamine signal; activation, % (test concentration not listed); 360,000 compounds, 0.084% hits; AID 624465; in the data active = activation above about 40%; inconclusive = about 15% to 40%; inactive = below about 15%; further: compound concentration not given in the record; the text of the record calls up to 30% inactive
Target sequence (P14416 whole entry, looked up): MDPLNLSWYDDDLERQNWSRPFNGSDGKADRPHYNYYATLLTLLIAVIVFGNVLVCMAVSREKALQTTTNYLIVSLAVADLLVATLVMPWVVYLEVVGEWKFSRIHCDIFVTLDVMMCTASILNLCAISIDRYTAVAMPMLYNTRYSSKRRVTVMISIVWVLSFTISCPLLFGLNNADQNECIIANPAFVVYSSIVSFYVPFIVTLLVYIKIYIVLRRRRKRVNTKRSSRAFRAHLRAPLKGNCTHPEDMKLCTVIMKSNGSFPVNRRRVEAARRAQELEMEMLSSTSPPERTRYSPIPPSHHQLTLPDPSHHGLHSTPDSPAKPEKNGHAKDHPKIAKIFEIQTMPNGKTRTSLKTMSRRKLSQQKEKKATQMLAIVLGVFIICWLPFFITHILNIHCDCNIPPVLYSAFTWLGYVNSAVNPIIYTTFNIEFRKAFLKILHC
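DiscoveRx PathHunter D2 beta-arrestin cells (2,100/well) attached overnight, then compound-stimulated 90 min at 37 C in HBSS/10 mM HEPES/0.1% Tween-20 buffer; beta-galactosidase complementation read by luminescence after 1 h at ambient temperature. Dopamine 57 uM final (EC100) as control.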
Six1-Eya2 blk: inhibitors of human Six1/Eya2 interaction | Q15475+O00167 | AID 651725 | activity change, % (no concentration beside the values) | AlphaScreen GST-Six1/His-Eya2 binding, biochemical; hits give low values; control for the full effect not named in the record | 360,000 compounds, 0.56% hits; in the data active = activity change below about -65%; inconclusive = about -30% to -65%; inactive = above about -30%; further: on the % scale 0 is the no-effect control and ±100 the full control effect
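Six1/Eya2 binding was read as AlphaScreen signal after compounds were pinned into GST-Six1 plus His-tagged Eya2 (5X stock 250/500 nM) in pH 8.0 Tris/NaCl/TCEP buffer, beads added, then incubated 1 h, 37 C, dark.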
PINK1 modulator: changes PINK1 expression | Potency, µM (top dose mostly 76.6 µM), inactives show top-dose activation (PINK1 increase), most hits filed as activators | PINK1 immunofluorescence, high-content cytometry, 24 h | 410,000 compounds, 0.2% hits; active = well fitted activation curve with a large enough effect; inconclusive = small, poorly fitted or top-dose-only effect; inactive = flat fitted curve, though single readings scatter; cell line not stated here;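 further: potency means the concentration at half of the fitted maximal effect; % of control where 0% means no effect; nearly all actives have a fitted effect of over 65% in size; a mitochondrial uncoupler was the plate control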
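Decision-based qHTS: stable cells, 24 h exposure to five compound concentrations, CCCP as control. Fixed cells stained for PINK1 plus nuclear, mitochondrial and cell markers, cytometer read.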
D2 potentiator: human D2 receptor positive allosteric modulation | P14416 | DiscoveRx D2 beta-arrestin cells, luminescence, 90 min; 100% = 57 uM dopamine signal | potentiation, % (test concentration not listed) | 360,000 compounds, 0.23% hits; active = potentiation of 50% or more; inconclusive = 30% to 50%; inactive = 30% or less;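 further: compound concentration not given in the record; tested on top of an EC20 dose of dopamine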
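PathHunter D2 cells, attached overnight at 37 deg C, received compound in DMSO plus dopamine at EC20 (50 nM final) for 90 min at 37 deg C. Beta-arrestin recruitment was read as luminescence after 1 h with detection reagent at ambient temperature.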
TRPML1 agonist: activates the human TRPML1 channel | Q9GZU1 | TRPML1-expressing cells, Ca2+ dye fluorescence, FDSS; host cell line not named in the record; reference of the full effect not given here | activation, % (concentration not given with the values) | 410,000 compounds, 0.12% hits; in the data active = activation above about 50%; inconclusive = about 30% to 50%; inactive = below about 30%; further: 0% is about no effect; the text of the record puts the active cut at 80%
Target sequence (Q9GZU1 whole entry, looked up): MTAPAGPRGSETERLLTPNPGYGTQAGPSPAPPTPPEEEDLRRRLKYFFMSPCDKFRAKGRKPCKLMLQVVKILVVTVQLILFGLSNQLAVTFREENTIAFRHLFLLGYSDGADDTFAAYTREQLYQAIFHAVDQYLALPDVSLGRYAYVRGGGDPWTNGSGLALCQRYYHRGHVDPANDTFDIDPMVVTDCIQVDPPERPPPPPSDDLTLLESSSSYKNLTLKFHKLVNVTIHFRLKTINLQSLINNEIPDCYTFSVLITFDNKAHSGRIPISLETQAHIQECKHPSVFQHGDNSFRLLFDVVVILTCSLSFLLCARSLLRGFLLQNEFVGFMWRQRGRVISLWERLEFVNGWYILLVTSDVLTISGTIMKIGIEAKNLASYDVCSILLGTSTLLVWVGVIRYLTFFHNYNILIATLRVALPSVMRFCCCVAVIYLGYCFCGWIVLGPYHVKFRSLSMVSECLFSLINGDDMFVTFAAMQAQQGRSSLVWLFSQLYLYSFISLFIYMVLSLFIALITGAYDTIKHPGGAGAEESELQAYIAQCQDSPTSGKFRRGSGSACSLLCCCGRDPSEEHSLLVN
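Cells: TRPML1-DL, 1X Tet inducer, ~16 h at 37 degrees C/5% CO2. Dye: ABD Ca8 no-wash + quencher, 45-90 min RT. Read: 10 s baseline, compound add, 110 s agonist phase; 54-4 EC80 (4uM final), 110 s antagonist phase.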
The depositor's hits bear a star; ? = inconclusive; nt = no result given; & = joins results of further samples; [ ] = another dose, or the depositor's remark.

SMILES	CtBP-E1A blk	D2 agonist	Six1-Eya2 blk	PINK1 modulator	D2 potentiator	TRPML1 agonist
Cc1ccc(OCCCCN(C)Cc2ccccc2)c(Br)c1	14	-1.0	10	4.1%	-42	1.7
O=C(CCC(=O)Nc1ccccc1Cl)N/N=C/c1ccccc1	-3	-1.2	-8	-2.2%	-17	-0.4
COc1cc(NC(=O)c2cc(S(=O)(=O)N3CCCCC3)ccc2N2CCOCC2)cc(OC)c1	1	-1.0	-13	1.2%	-3	0.8
COc1ccccc1-n1c(SCC(=O)NC2CC2)nc2ccccc2c1=O	-3	-2.0	0	-0.3%	-3	0.2
Cc1nn(C(=O)/C(C#N)=C/N(C)C)c(C)c1C	3	4.0	-5	-0.9%	-30	-0.2
Cc1ccc(NC(=O)c2ccc(=O)n(CC(=O)Nc3ccccc3)n2)cc1	2	-5.0	2	6.3%&0.6%	-7	-0.6&0.5
CN(C)CCCNc1c2ccccc2nc2ccccc12	-10	-2.0	-12	-2.0%	-5	-0.7
COc1cc(OC)cc(C2=Cc3ccccc3C(CC(C)=O)N2c2ccc(C#CC3(N)CCCCC3)cc2)c1 (stereo not given)	5	nt	7	-1.4%	nt	-0.1
COC(=O)c1[nH]c2ccc(Cl)cc2c1NC(=O)c1ccccc1[N+](=O)[O-]	nt	-4.3	-7	5.5%	-2	1.3
CC(C)(C)OC(=O)N/N=C\c1ccc(OC(=O)c2ccco2)cc1	-1	-2.2	-1	-0.4%	-8	-0.6
COCCNc1nnc(SCC(=O)NNC(=O)c2ccco2)s1	0	-2.3	5	1.0%	-4	0.0
Nc1nonc1NC(=O)NN=C1CCCCC1	3	0.3	2	-1.9%	-13	0.7
Cc1ccc(C(=O)CCC(=O)Nc2ccccc2C)cc1C	11	0.6	3	1.6%	-3	0.2
Cc1ccc(N=Cc2c(O)c3ccccc3oc2=O)cc1F	8	0.0	0	1.1%	-1	1.0
CC(C)Oc1ccc(/C=N/NC(=O)c2ccc(N(Cc3ccccc3)S(C)(=O)=O)cc2)cc1	6	-0.2	0	0.1%	5	2.0
O=C1N[C@@H](c2ccccc2)COC(=O)[C@@H](Cc2ccc(F)cc2)CC/C=C/C[C@H]1CC(=O)N(CCO)Cc1ccccc1	-8	8.1	0	-0.9%	nt	3.9
CSc1ccc(C(O)c2ncc(-c3ccc(F)cc3)[nH]2)cc1 (stereo not given)	-22	-3.6	-16	0.6%	-10	-1.1
Cc1ccccc1CN1C(=O)c2ccccc2Sc2ccc(C(=O)NCCCN3CCOCC3)cc21	nt	-3.6	-4	-0.4%&0.2%	-16	0.0&0.3
C/C(=N\NC(=O)COc1ccccc1[N+](=O)[O-])c1cccs1	-6	-5.8	0	2.2%	-3	-0.4
COc1ccc(NC(=O)c2cc(C)nc3ccccc23)cc1S(=O)(=O)Nc1ccccc1Cl	-12	3.1	3	20%	-10	1.4
CCCNC(=O)COC(=O)c1ccc(S(=O)(=O)N2CCCCCC2)cc1	5	-3.1	6	0.7%	-13	-0.6
CCc1ccc(N2CCN(CCNC(=O)Nc3ccccc3)CC2)cc1	0	7.6	0	1.9%	10	1.0
CC(C)Cn1c(CN2CCCCC2C)nc2c1c(=O)n(C)c(=O)n2C (stereo not given)	0	-6.0	0	2.3%	-10	-0.2
Cn1c(CNC(=O)CCNC(=O)c2ccccc2F)cc(=O)n(C)c1=O	5	0.5	1	0.0%	-2	-0.4
COc1ccc(CC(=O)Nc2cc(F)ccc2F)cc1S(=O)(=O)N1CCOCC1	-11	-6.1	4	-0.4%	-15	0.0

New compounds follow
SMILES	CtBP-E1A blk	D2 agonist	Six1-Eya2 blk	PINK1 modulator	D2 potentiator	TRPML1 agonist
COc1ccc(C2=NS(=O)(=O)N(C)C(C(=O)NCc3cccs3)=C2)cc1OC	-1	2.0	-5	1.8%	-7	-0.4
COc1ccc(OCC(=O)Nc2cccc(C(=O)Nc3ccccc3C(=O)O)c2)cc1	-22	5.7	-13	-0.4%	0	3.5
COc1ccc(NC(=O)c2cnc(NS(=O)(=O)c3ccccc3)nc2)cc1	2	7.3	0	1.4%	-4	0.4
COc1ccc(NC(=O)c2cnc(SC)nc2C)c(OC)c1	-27	-0.8	-2	1.0%	0	0.3
Cc1cccn2c(=O)c3cc(C#N)c(=NC(=O)c4ccncc4)n(CCCOC(C)C)c3nc12	0	-5.6	-9	-0.2%	-7	0.2
COc1ccc(C(=O)NNC(=O)C(=O)NC(C)c2ccccc2)cc1OC (stereo not given)	3	-4.3	-4	4.0%	2	-0.4
S=c1nc2ccccc2c2nc(-c3cccnc3)[nH]n12	-21	-3.9	-8	1.2%	-7	nt
COc1ccccc1S(=O)(=O)N(C)C[C@@H]1Oc2cc(C#CCC(C)C)ccc2S(=O)(=O)N([C@H](C)CO)C[C@@H]1C	-1	-5.2	-11	-1.8%	-10	0.7
CCOC(=O)/C(C#N)=C\C1=C(N2CCCC2)CC(C)(CC)OC1 (stereo not given)	-4	-0.2	-4	-0.4%	5	-1.7
Cc1ccc(CN2CCN(/N=C/c3cc(Br)cc(Br)c3O)CC2)c(C)c1	-10	-4.4	-10	1.1%	-19	-0.2
CCN(c1ccccc1)S(=O)(=O)c1ccc(N2CCN(c3ccc(O)cc3)CC2)nc1	0	14	?	20%	15	0.1
CCC1(C)CC2(CCCN(CCC(=O)c3ccccc3)C2)CCO1 (stereo not given)	nt	-2.3	-2	-0.5%	-10	0.3
COc1cccc(NC(=S)NCCc2ccccn2)c1	nt	1.9	-1	-0.4%	-8	0.4
CC(=O)NCCn1c(SCC(=O)NCCC(C)C)nc2ccccc2c1=O	45	-1.6	23	-3.5%[38.3 µM]	-3	-0.8
Cc1ccc2c(=O)n3c(nc2c1)C(Cc1ccc(O)cc1)NC(=O)c1cccnc1-3 (stereo not given)	4	-11	-2	0.6%	0	-0.5
COc1ccc(CN2C(=O)C(CC(=O)NCc3cccc4ccccc34)CC(C(=O)N(C(C)C)C(C)C)=C2C)cc1 (stereo not given)	19	2.3	9	-0.4%	-6	2.2
COc1ccc(CCC(=O)OCC(=O)Nc2c(C)nn(-c3ccccc3)c2C)cc1	4	0.2	-5	0.9%	2	0.0
Cc1cccc(NC(=O)CCc2c(C)nn(-c3ccc(N4CCCCC4)nn3)c2C)c1	nt	0.7	-5	3.2%	-6	2.7
COc1ccsc1C(=O)Nc1ccc(F)cc1F	-1	-4.4	0	-1.7%	-6	0.9
CC(=O)N(C)C1(c2nnnn2CCOC(=O)Nc2cccc3ccccc23)CCCC1	6	-2.2	1	-2.3%	14	-1.0
COc1ccccc1NC(=O)Cn1c2ccccc2c2nc3n(c(=O)c21)CCS3	0	-4.8	-1	5.8%	-27	-1.2
COC(=O)c1sccc1NC(=S)N1CCN(C)CC1	1	-2.8	6	0.8%	-6	-0.3
O=C1COc2ccc(-c3n[nH]c(=O)c4ccccc34)cc2N1	-7	-4.7	2	-0.7%	1	0.4
O=C(COc1ccc(S(=O)(=O)N2CCOCC2)cc1Cl)NCc1ccccn1	6	0.9	-1	2.6%	1	-0.7
Cc1ccccc1CC1(CO)CCCN(C(=O)c2ccc3ncccc3c2)C1 (stereo not given)	8	-0.5	-3	-1.9%	-31	1.2

Given with each value named: part of the list above.
O=C(COc1ccc(S(=O)(=O)N2CCOCC2)cc1Cl)NCc1ccccn1
  CtBP-E1A blk: 6	D2 agonist: 0.9	Six1-Eya2 blk: -1	PINK1 modulator: 2.6%	D2 potentiator: 1	TRPML1 agonist: -0.7
Cc1ccccc1CC1(CO)CCCN(C(=O)c2ccc3ncccc3c2)C1 (stereo not given)
  CtBP-E1A blk: 8	D2 agonist: -0.5	Six1-Eya2 blk: -3	PINK1 modulator: -1.9%	D2 potentiator: -31	TRPML1 agonist: 1.2

Back to the main list with the four entries that preceded the break.
SMILES	CtBP-E1A blk	D2 agonist	Six1-Eya2 blk	PINK1 modulator	D2 potentiator	TRPML1 agonist
COC(=O)c1sccc1NC(=S)N1CCN(C)CC1	1	-2.8	6	0.8%	-6	-0.3
O=C1COc2ccc(-c3n[nH]c(=O)c4ccccc34)cc2N1	-7	-4.7	2	-0.7%	1	0.4
O=C(COc1ccc(S(=O)(=O)N2CCOCC2)cc1Cl)NCc1ccccn1	6	0.9	-1	2.6%	1	-0.7
Cc1ccccc1CC1(CO)CCCN(C(=O)c2ccc3ncccc3c2)C1 (stereo not given)	8	-0.5	-3	-1.9%	-31	1.2
CCc1nc(SCC(=O)Nc2cc(C)on2)c2c(C)c(C)sc2n1	7	0.8	-2	8.1%	15	-0.7
S=c1nc[nH]c2c1cnn2-c1ccccc1	nt	-4.0	-1	-1.6%	-7	-0.1
Nc1ccn([C@@H]2O[C@H](C(=O)N[C@H](CO)Cc3ccccc3)[C@@H](O)[C@H]2O)c(=O)n1	-11	-3.7	10	0.4%	-5	-0.3
O=C(O)c1ccc2c(=O)n3c(nc2c1)/C(=C/c1cccc(Cl)c1Cl)CCCC3	-2	11	-12	-1.8%	?	1.8
CCN(CC)c1ccc(/C=N/NC(=O)c2ccc(Br)o2)cc1	-7	-1.4	-6	1.4%	-14	1.6
O=C(COC(=O)c1cccc(Cl)c1)NCCN1C(=O)CSC1=O	9	-3.1	4	3.2%	-19	0.4
Cc1ccccc1CN(C)C[C@@H]1OCc2cnnn2CCCC(=O)N([C@@H](C)CO)C[C@H]1C	5	-2.0	7	1.3%	-1	-0.7
Cc1ccc(C)c(CN2C(=O)C3(OCCCO3)c3ccccc32)c1	6	-2.4	-1	6.5%[38.3 µM]	-12	0.8
O=C1NN(c2ccccc2)C(=O)/C1=C\c1ccc(-c2cc([N+](=O)[O-])ccc2O)o1	2	-1.7	-5	0.2%	-5	0.5
Cc1ccnc(SCC(=O)N2CCc3ccccc32)n1	5	-1.1	1	4.1%	-4	0.3
Cc1cc(C(=O)Nc2ccc(S(=O)(=O)N3CCCC3)cc2)cs1	-8	-1.4	-5	3.3%[38.3 µM]	-9	0.7
COc1ccc(CCNC(=O)CN2CCC(C)CC2)cc1OC	-9	-2.5	1	-1.3%	-17	1.9
COc1ccc(CCNC(=O)C2CCN(C(=O)c3cccc(Cl)c3)CC2)cc1OC	-2	-3.9	2	0.5%	-9	0.2
CCOC(=O)N1CCN(C(=O)c2cc(COc3ccc(Cl)cc3OC)on2)CC1	1	5.1	3	0.9%	-1	2.2
CCCC(=O)Nc1ccc(C(=O)NCC2CCCO2)cc1 (stereo not given)	9	-2.5	-2	nt	-15	-0.3
O=C(NCCc1c[nH]c2ccccc12)C(=O)NCC1OCCCN1S(=O)(=O)c1ccccc1 (stereo not given)	-6	3.2	-3	-1.6%	0	1.7
NS(=O)(=O)c1ccc(CNS(=O)(=O)c2ccc(Cl)nc2)cc1	4	-5.3	11	-0.4%	-6	-0.1
CCCOC(=O)CSc1nnc(-c2cc(OC)c(OC)c(OC)c2)o1	4	-2.3	15	7.2%	-1	1.3
O=C(Nc1nnc(C2CCCCC2)s1)c1cccs1	-3	-2.6	3	2.1%[38.3 µM]	-11	0.8
c1ccc(CN2C3=NCCCN3c3ccccc32)cc1	7	3.3	7	0.4%	-15	-0.1
CCOc1cc(S(=O)(=O)N2CCN(CC)CC2)ccc1Cl	12	-1.2	-4	-0.9%	-18	-0.4
COc1ccc(NS(=O)(=O)c2ccc(NS(=O)(=O)c3cccs3)cc2)cc1	8	9.3	6	2.1%	6	-0.5
